Rce1 inh = yeast Rce1p protease inhibitors, primary screen, biochemical, fluorescence, cell-free homogeneous; CAAX prenyl protease 2 (Saccharomyces cerevisiae (strain ATCC 204508 / S288c)), Q03530; yeast membranes, quenched prenylated peptide cleavage fluorescence; calls only; 0.27% of 290,000 active; AID 2563, 2010;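 active = fall in fluorescence gain of 50% or more versus controls, with final raw signal at or below 3038400; inconclusive = same 50% fall but final raw signal above 3038400; inactive = fall in fluorescence gain under 50%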;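 note: plate controls were neutral control wells for no effect and wells lacking membranes for full effect; tested at 10 µM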
Target sequence (Q03530 whole entry, looked up): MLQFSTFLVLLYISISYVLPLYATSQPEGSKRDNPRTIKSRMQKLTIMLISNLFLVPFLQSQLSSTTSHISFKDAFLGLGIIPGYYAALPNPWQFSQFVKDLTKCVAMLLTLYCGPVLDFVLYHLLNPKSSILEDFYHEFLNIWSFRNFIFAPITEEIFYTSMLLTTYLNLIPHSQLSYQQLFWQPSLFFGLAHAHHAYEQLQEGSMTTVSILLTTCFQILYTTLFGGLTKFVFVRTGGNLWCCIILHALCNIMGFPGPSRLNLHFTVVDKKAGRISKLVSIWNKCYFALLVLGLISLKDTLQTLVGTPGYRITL
MT1-MMP act inh = blockers of MT1-MMP proenzyme processing, primary screen, HT1080 RFP-PRO-GFP cells, GFP/RFP fluorescence | Matrix metalloproteinase-14 (Homo sapiens), P50281 | GFP/RFP ratio fluorescence, overnight; percent of plate control window, DMSO zero | GFP/RFP ratio change, % at 20 µM | 0.061% of 360,000 active | AID 651647, 2012;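 active = GFP/RFP ratio change of at least 30% with cell ATP level not reduced by more than half and red fluorescence within 50% of control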; note: strong numbers were not always called active
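Test system: HT1080 cells expressing an RFP-PRO-GFP fluorescent reporter construct / Compound dosing: single-point 20 µM compound, 1% DMSO / Schedule: cells overnight before dosing, compound overnight, 37 °C, 5% CO2 / Evaluation: GFP/RFP fluorescence ratio / Control set: DMSO and RFP-L50D-GFP cell wells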
CSC inhib = cancer stem cell viability inhibitors, primary screen, luminescence; inhibition, % at 7.5 µM; 1.1% of 300,000 active; cancer stem cell-like cells viability;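 active = mean at 75% or more and at least half the replicates too; inconclusive = mean and replicates disagree; tested in HMLE shEcad cells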;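 note: 0% = median of negative and 100% = median of positive control wells; the first replicate is given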
Yeast UUG start = modulators of yeast start codon fidelity, primary screen, whole organism, S. cerevisiae, single point, plate reader. S. cerevisiae UUG-firefly luciferase reporter, luminescence/redox ratio. 0.13% of 350,000 active. AID 602363, 2012. activity score, % at 18.7 µM;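 active = replicate mean at a twofold rise or more, about +100% in these data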;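 note: firefly luciferase made from a UUG start codon reports start codon fidelity; reporter light over untreated wells divided by growth signal over untreated wells; some hits fall short of that in this replicate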
eIF4H inh = human eIF4H binding inhibitors, primary screen, translation initiation inhibitor project, biochemical, uHTS, fluorescence polarization. Eukaryotic translation initiation factor 4H (Homo sapiens), Q15056. inhibition, % at 35 µM. 0.94% of 290,000 active. AID 2012, 2009. eIF4H fluorescence polarization binding assay;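 active = 50% or more with normal probe brightness, or confirmed in later tests; inconclusive = above 50% with abnormal brightness, or retests that disagree; inactive = below 50% or failed in later tests; about a fifth of its hits are not listed in these tables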;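 note: calls also rest on retests at 20 µM and on dose response follow-up; 0% = protein and probe with vehicle and 100% = probe without protein; strong numbers were not always called active; many hits fall short of the cut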
PABP polyA inh = PABP poly(A) RNA binding inhibitors, primary screen, biochemical, fluorescence polarization, uHTS | Polyadenylate-binding protein 1 (Homo sapiens), P11940 | inhibition, % at 35 µM | 1% of 290,000 active | AID 2014, 2009;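 active = 50% or more with normal probe brightness, or confirmed in later tests; inconclusive = above 50% with abnormal brightness, or retests that disagree; inactive = below 50% or failed in later tests; about a fifth of its hits are not listed in these tables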;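 note: calls also rest on retests at 20 µM and on dose response follow-up; controls were probe without protein and protein plus probe with vehicle; some compounds called inactive have numbers as strong as hits; many hits fall short of the cut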
Env fusion inh = inhibitors of HIV-1 Env-driven cell-cell fusion, primary screen, HeLa-JRFL effector, CEM21 target cells, luciferase | AID 651610, 2012 | inhibition, % at 12.3 µM | 1.1% of 360,000 active;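 active = mean replicate inhibition score of at least 50 and every replicate individually at or above 50; inconclusive = only one of the two criteria met; inactive = mean below 50 and not all replicates reaching 50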;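 note: 0% = plate neutral controls and 100% = maraviroc near 300 nM; one replicate is shown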
eIF4H inh retest = recorded beside eIF4H inh, whose call it bears; inhibition, %; compound at 20 µM; confirmation average;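 mean of two retest wells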
PABP polyA inh retest = recorded beside PABP polyA inh, whose call it bears; inhibition, %; compound at 20 µM; confirmation repeats;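 mean of two retest wells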
MT1-MMP act inh RFP = further read-out of MT1-MMP act inh, marked with its call; RFP signal change, %; measured here: RFP expression control read;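 0 = vehicle wells; hits needed this value within 50% of zero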
An asterisk follows results filed as active; i = inactive; ? = inconclusive; · = not tested or not shown. A portion of the library; rates above refer to the full screens.

SMILES	Rce1 inh	MT1-MMP act inh	MT1-MMP act inh RFP	CSC inhib	Yeast UUG start	eIF4H inh	PABP polyA inh	Env fusion inh	others
CCN1CCN(C(=O)COc2cc(=O)n(CC)c3ccccc23)CC1	i	3	7	-4	-19	-9	-1	-9
COc1ccc(C2SCC(=O)Nc3c2c(C)nn3-c2ccccc2)cc1 (stereo not given)	i	-4	-5	17	-5	-5	-4	·
CCOP(=S)(OCC)SCSP(=S)(OCC)OCC	·	-5	0	·	-14	·	·	16
COc1ccc(CCNC(=O)c2c(N)n(CCN3CCOCC3)c3nc4ccccc4nc23)cc1	i	-3	-2	42	13	-7	0	·
C[C@@]1(CO)[C@H](O)CC[C@@]2(C)[C@H]1CC[C@H]1C[C@@H]3C[C@@]12CC[C@]3(O)CO	i	·	·	?	·	-8	12	·
CC1CN=C(Nc2ccc(F)cc2)S1 (stereo not given)	i	2	0	-6	-10	-6	-16	-8
CC(c1ccccc1F)n1cc(C(=O)Nc2ccc3nc[nH]c3c2)nn1 (stereo not given)	i	-1	-1	-10	-5	8	3	-95
C=C(C=O)CC1CC(O)[C@]2(C)OC3CC4OC5C[C@]6(C)O[C@]7(C)CCC8OC9C[C@]%10(C)OC%11C(C)=CC(=O)OC%11CC%10OC9C[C@@H](C)C8OC7CC6O[C@]5(C)CC5OC5C4OC3CC2O1 (stereo not given in full)	i	-36	-34	9	7	7	6	·
O=C1NC(=O)C(=Cc2cn(CCOc3ccc4c(c3)OCO4)c3ccccc23)C(=O)N1	i	3	-3	37	-19	?	?	·
C=CCn1c(O)c(C(CC)=Nc2cc(OC)ccc2OC)c(=O)[nH]c1=O	i	-1	8	-12	17	-6	2	-5
CC(=O)O[C@H]1[C@H]2O[C@]23[C@@H]2CC[C@]4(O)C[C@@H](O)CC[C@]4(C)C2CC[C@]3(C)[C@H]1c1ccc(=O)oc1 (stereo not given in full)	·	-45	-28	105*	10	·	·	·
CCC(=O)Nc1ccc(Cl)c(Cl)c1	·	-6	1	·	3	·	·	19
COc1cc2c(cc1OC)C(c1c(O)n(CCc3ccccc3)c(=S)[nH]c1=O)NCC2 (stereo not given)	i	·	·	-7	·	?	40*	4	PABP polyA inh retest=83*
CC(C)CC12CN3CCN(CC(C3)/C1=N/O)C2	·	-1	3	10	-19	-3	-11	-27
Clc1ccccc1Nc1ncnc(-n2cccc2)n1	i	-1	3	-4	1	8	0	-397
O=C(COC(=O)c1cccc(O)c1)Nc1ccc(Cl)cc1C(=O)c1ccccc1	i	3	1	0	·	3	37	1
O=C1NC(=S)SC1=Cc1ccc(N(CCCl)CCCl)cc1	·	-120	-8	·	-13	·	·	-13
CCc1ccc(CNCCc2ccc(F)cc2)cc1	i	7	4	40	·	0	1	-10
c1cncc(CNCCc2c[nH]c3ccccc23)c1	i	2	2	2	-17	-1	1	1
CCCCCCNC(=O)N[C@H](Cc1ccc(O)cc1)C(=O)NCCC[C@H]1CN2C(=NC[C@H]2CCC)N1CC1CCC1	i	·	·	10	·	-13	-6	·
CN(C(=O)c1ccc(Cl)nc1)C1(c2ccccc2Cl)CCCCC1=O (stereo not given)	i	2	3	-4	·	-5	38	2
O=C1CN(C(=O)CN2CCCCC2)C(c2ccccc2)c2cc(Br)ccc2N1 (stereo not given)	i	-1	3	-8	-31	0	4	-100
CC1CCC(C(C)C)C(OC(=O)Cn2c(COc3ccccc3)[n+](C)c3ccccc32)C1 (stereo not given)	i	-33	-35	98*	-8	-5	-1	78*
C(=N\NC1=NCCCCC1)/c1c[nH]c2ccccc12	i	5	-1	-8	·	-1	0	2
O=C(c1cc(-c2ccccc2)on1)N1CCC2(CC1)OCCO2	i	·	·	7	·	-5	2	·
CNS(=O)(=O)c1ccc(N=Cc2c(O)n(-c3cccc(C)c3)c(=O)[nH]c2=O)cc1	i	-17	-3	-12	5	?	-12	2
O=C1C(Cl)=CC(=Nc2ccc(O)cc2)C=C1Cl	·	3	6	·	-4	·	·	-29
COC(=O)C1=C(c2ccccc2OCc2ccccc2)C[C@@H]2CC[C@H]1N2C	·	-9	2	·	6	·	·	8
CCOC(=O)c1nc2ccccc2c(=O)n1-c1cccc(C)c1	i	-3	-1	·	-5	-4	-9	·
COc1ccc(C(CC(=O)N2CCC3(CC2)OCCO3)NS(=O)(=O)c2ccc(F)cc2)cc1 (stereo not given)	i	2	4	-5	7	2	-1	·
CCCCCc1nc2ccccc2c(=O)n1-c1ccccc1[N+](=O)[O-]	i	-3	-4	-3	-16	-7	4	12
Cc1ncc(CN2CCCC(C(=O)c3cccc(Cl)c3)C2)s1 (stereo not given)	i	6	0	3	·	3	-2	-2
O=c1[nH]c(O)c(C=Nc2cccc(F)c2)c(=O)[nH]1	i	-4	0	-9	-5	2	-11	-11
CN(C)Cc1c[nH]c2ccccc12	·	-1	2	-5	-9	·	·	·
COc1cc(-n2c(=S)[nH]c3ccc(C)cc3c2=O)c(Cl)cc1Cl	i	-5	-7	·	·	2	1	-3
CCN(CC)CCNCC(=O)Nc1ccc(Cl)cc1C(=O)c1ccccc1	i	3	2	-10	-5	-10	29	-118
O=C(c1cccs1)N1C2CCC1CC(O)(c1cccnc1)C2 (stereo not given)	i	-1	3	3	-15	8	1	·
COCOC1CCC2C3CCC4=CC(=O)CCC4=C3C=CC12C (stereo not given)	·	-8	-4	·	-9	·	·	1
COc1cccc(O)c1CN1CCCC(C(=O)c2sccc2C)C1 (stereo not given)	i	5	2	34	-10	3	-9	-2
COc1ccc(/C=C/C(=O)c2c(O)n(CCC3=CCCCC3)c(=O)[nH]c2=O)cc1OC	i	-34	-18	7	·	-7	?	-3
COc1ccc(OC)c(C(c2c(O)c3ccccc3oc2=O)c2c(C)n(C)n(-c3ccccc3)c2=O)c1 (stereo not given)	i	-2	-2	-22	5	-5	65	13	eIF4H inh retest=-4;PABP polyA inh retest=2
O=c1[nH]c(=S)[nH]c(O)c1N=Nc1ccc2c(c1)OCO2	i	1	3	-8	·	53*	-4	-26	eIF4H inh retest=99*;PABP polyA inh retest=47
COc1c(C=C2C(=O)NC(=O)NC2=O)c(CCN(C)C(=O)c2ccccc2)cc2c1OCO2	i	6	6	-3	-10	2	6	·
CN1CCN(c2ccc([N+](=O)[O-])c(NCC3CCCO3)c2)CC1 (stereo not given)	i	-1	-3	-14	·	-7	8	20
O=C1NC(=S)NC(=O)C1=Cc1cccn1-c1ccc(O)cc1	i	0	-3	·	·	87	-9	-56	eIF4H inh retest=3;PABP polyA inh retest=19
CCCOc1ccccc1OCC(=O)N1CCN(CC(=O)N2CCOCC2)CC1	·	1	6	·	-9	·	·	13
CCC(=O)N1CC(=O)Nc2ccc(F)cc2C1c1ccccc1 (stereo not given)	i	4	7	-3	-2	5	12	2
CCOC(=O)C1(c2ccccc2)CCN(Cc2cccc(C(=O)O)c2)CC1	i	0	1	-9	-6	-2	-5	-42
CN1Cc2cccnc2N(C)Cc2cc(Cl)ccc21	i	-7	-20	1	-15	0	-4	29
OCC1CN1C1CCCCC1 (stereo not given)	·	3	2	·	-15	·	·	4
CC1CCCCN1C(=O)Cn1cc(C=C2C(=O)N(C)C(=O)N(C)C2=O)c2ccccc21 (stereo not given)	i	-6	2	-11	-10	?	?	-8
Clc1ccc(CCNCc2ccncc2)c(Cl)c1	i	3	1	5	-8	-6	1	5
CCCCCCn1c(O)c(C(C)=NC)c(=O)[nH]c1=O	i	2	0	·	-17	1	-8	-27
COC(=NC1CCCCC1)C(O)c1c[nH]c2ccccc12 (stereo not given)	i	-1	-1	-3	7	-6	5	-10
c1ccc(C(OCCN2CCNCC2)c2ccccc2)cc1	i	1	-1	-10	-7	-9	-7	-25
COc1ccc(NP(=O)(Nc2ccc(OC)cc2)Oc2ccccc2)cc1	i	-3	-2	-9	8	-6	0	·
Cc1cc(C)nc(NS(=O)(=O)c2ccc(N=Cc3c(O)n(C)c(=O)n(C)c3=O)cc2)n1	i	-16	6	-3	·	?	?	13
Cc1nn(Cc2ccccc2Cl)c(Cl)c1C(=O)O	i	4	4	0	-9	-8	2	-24
COc1ccccc1-n1c(/C=C/c2ccc(O)cc2)nc2ccccc2c1=O	i	-101	0	2	-14	-12	-10	16
CNCCc1ccc(OC)c(OC)c1	i	2	6	-8	-12	-3	16	·
COc1ccc(NC(=O)c2cn(CCC#N)nc2-c2ccc([N+](=O)[O-])cc2)cc1	i	-3	-1	2	·	0	-9	4
COc1cc2c(cc1OC)-c1c(OC)c(OC)cc3c1[C@H](C2)[N+](C)(C)CC3	i	1	4	18	-10	-6	2	-148

Structures listed so far containing four or more nitrogen atoms:
SMILES	Rce1 inh	MT1-MMP act inh	MT1-MMP act inh RFP	CSC inhib	Yeast UUG start	eIF4H inh	PABP polyA inh	Env fusion inh	others
COc1ccc(CCNC(=O)c2c(N)n(CCN3CCOCC3)c3nc4ccccc4nc23)cc1	i	-3	-2	42	13	-7	0	·
CC(c1ccccc1F)n1cc(C(=O)Nc2ccc3nc[nH]c3c2)nn1 (stereo not given)	i	-1	-1	-10	-5	8	3	-95
Clc1ccccc1Nc1ncnc(-n2cccc2)n1	i	-1	3	-4	1	8	0	-397
CCCCCCNC(=O)N[C@H](Cc1ccc(O)cc1)C(=O)NCCC[C@H]1CN2C(=NC[C@H]2CCC)N1CC1CCC1	i	·	·	10	·	-13	-6	·
C(=N\NC1=NCCCCC1)/c1c[nH]c2ccccc12	i	5	-1	-8	·	-1	0	2
CNS(=O)(=O)c1ccc(N=Cc2c(O)n(-c3cccc(C)c3)c(=O)[nH]c2=O)cc1	i	-17	-3	-12	5	?	-12	2
O=c1[nH]c(=S)[nH]c(O)c1N=Nc1ccc2c(c1)OCO2	i	1	3	-8	·	53*	-4	-26	eIF4H inh retest=99*;PABP polyA inh retest=47
CN1CCN(c2ccc([N+](=O)[O-])c(NCC3CCCO3)c2)CC1 (stereo not given)	i	-1	-3	-14	·	-7	8	20
CC1CCCCN1C(=O)Cn1cc(C=C2C(=O)N(C)C(=O)N(C)C2=O)c2ccccc21 (stereo not given)	i	-6	2	-11	-10	?	?	-8
Cc1cc(C)nc(NS(=O)(=O)c2ccc(N=Cc3c(O)n(C)c(=O)n(C)c3=O)cc2)n1	i	-16	6	-3	·	?	?	13
COc1ccc(NC(=O)c2cn(CCC#N)nc2-c2ccc([N+](=O)[O-])cc2)cc1	i	-3	-1	2	·	0	-9	4

Bioassay records as filed in PubChem BioAssay.
